D2 PAM – potentiates the human D2 dopamine receptor allosterically; 360,000 tested, 0.23% active; DiscoveRx D2 beta-arrestin cells, luminescence, 90 min; 100% = 57 uM dopamine signal; potentiation, % (no concentration beside the values); P14416; active = potentiation of 50% or more; inconclusive = 30% to 50%; inactive = 30% or less;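 also: compound concentration not given in the record; tested on top of an EC20 dose of dopamine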
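PathHunter D2 cells, attached overnight at 37 deg C, received compound in DMSO plus dopamine at EC20 (50 nM final) for 90 min at 37 deg C. Beta-arrestin recruitment was read as luminescence after 1 h with detection reagent at ambient temperature.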
TRPML1 ag – human mucolipin-1 channel agonism; TRPML1-expressing cells, Ca2+ dye fluorescence, FDSS; host cell line not named in the record; reference of the full effect not given here; activation, % (test concentration not listed); 410,000 tested, 0.12% active; AID 624414; in the data active = activation above about 50%; inconclusive = about 30% to 50%; inactive = below about 30%; also: 0% is about no effect; the text of the record puts the active cut at 80%
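Cells: TRPML1-DL, 1X Tet inducer, ~16 h at 37 degrees C/5% CO2. Dye: ABD Ca8 no-wash + quencher, 45-90 min RT. Read: 10 s baseline, compound add, 110 s agonist phase; 54-4 EC80 (4uM final), 110 s antagonist phase.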
TRPV1 PAM – enhances activation of the human vanilloid receptor TRPV1 | TRPV1-expressing cells, Fluo-8 calcium influx, capsaicin EC20 potentiation; host cell line not named in the record; control for the full effect not named in the record | potentiation, % at 8.33 µM | 320,000 tested, 0.02% active; active means potentiation above 80%; inconclusive means 30% to 80%; inactive means below 30%; also: 0% is about no effect
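TRPV1-expressing cells were cultured overnight at 35.5C and loaded with Fluo-8 calcium dye for 40 to 90 min at room temperature. After a 10 s baseline, compound was added and calcium influx was read kinetically for 3 min (ex 480/em 520 nm).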
CtBP-E1A inh – CtBP/E1A binding inhibition; AlphaScreen GST-E1A/His-CtBP binding, 1536-well; hits give low values; control for the full effect not named in the record; 340,000 tested, 0.49% active; activity change, % (test concentration not listed); in the data active means activity change below about -65%; inconclusive means about -30% to -65%; inactive means above about -30%; also: % is scaled to controls: 0 for no effect and ±100 for the full control effect; compound concentration not given in the record
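GST-E1A and His-tagged CtBP (125 nM each as 5X stock) were preincubated with pin-transferred compound for 2 h at 37 °C in the dark, then glutathione donor and nickel acceptor beads were added for 1 h before AlphaScreen reading.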
Six1-Eya2 blk – inhibitors of human Six1/Eya2 interaction; Q15475+O00167; AlphaScreen GST-Six1/His-Eya2 binding, biochemical; hits give low values; control for the full effect not named in the record; activity change, % (no concentration beside the values); 360,000 tested, 0.56% active; AID 651725; in the data active = activity change below about -65%; inconclusive = about -30% to -65%; inactive = above about -30%; also: % is scaled to controls: 0 for no effect and ±100 for the full control effect; compound concentration not given in the record
Target sequence (O00167 whole entry, looked up): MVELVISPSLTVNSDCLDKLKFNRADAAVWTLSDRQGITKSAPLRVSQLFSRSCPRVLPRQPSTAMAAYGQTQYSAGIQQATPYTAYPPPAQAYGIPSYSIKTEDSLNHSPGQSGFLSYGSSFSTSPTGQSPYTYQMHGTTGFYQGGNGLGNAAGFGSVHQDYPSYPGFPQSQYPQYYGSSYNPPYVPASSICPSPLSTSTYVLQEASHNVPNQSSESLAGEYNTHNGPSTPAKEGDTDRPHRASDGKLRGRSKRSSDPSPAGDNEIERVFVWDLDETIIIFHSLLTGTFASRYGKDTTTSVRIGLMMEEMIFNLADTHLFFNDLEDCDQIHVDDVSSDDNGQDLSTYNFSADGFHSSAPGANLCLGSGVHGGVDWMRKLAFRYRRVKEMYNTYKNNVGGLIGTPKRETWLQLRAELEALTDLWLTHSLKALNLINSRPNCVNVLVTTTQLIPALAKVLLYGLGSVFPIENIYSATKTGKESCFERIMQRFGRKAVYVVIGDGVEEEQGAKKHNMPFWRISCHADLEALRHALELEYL
Target sequence (Q15475 whole entry, looked up): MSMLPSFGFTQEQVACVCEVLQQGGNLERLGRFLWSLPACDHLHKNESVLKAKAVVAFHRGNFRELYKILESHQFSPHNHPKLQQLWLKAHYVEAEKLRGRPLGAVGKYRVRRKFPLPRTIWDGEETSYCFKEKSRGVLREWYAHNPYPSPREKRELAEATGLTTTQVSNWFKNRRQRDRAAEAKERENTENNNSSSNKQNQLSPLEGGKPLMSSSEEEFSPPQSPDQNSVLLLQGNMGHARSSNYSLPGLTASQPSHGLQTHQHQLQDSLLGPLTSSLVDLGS
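AlphaScreen luminescence read after one hour at 37 °C in darkness. Pin-transferred compounds met GST-Six1 and His-Eya2 protein (5X stock 250 nM/500 nM) plus glutathione donor and Ni-chelate acceptor beads (5X, 50 ug/mL).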
TRPML1 inh – blocks the human TRPML1 channel | 390,000 tested, 0.02% active | activity change, negative = inhibition, % (concentration not given with the values) | TRPML1-inducible cells, Ca2+ dye fluorescence, FDSS; hits give low values; inhibition of EC80 agonist-evoked calcium signal | Q9GZU1 | AID 624415; in the data active means activity change below about -50%; inconclusive means about -30% to -50%; inactive means above about -30%;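 also: stimulus is agonist 54-4 at its EC80 concentration; % is scaled to controls: 0 for no effect and ±100 for the full control effect; compound concentration not given in the record; the text of the record puts the active cut at -80%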
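TRPML1-DL cells, Tet-induced overnight (~16 h, 37 °C) at 1,500 cells/well, were loaded with Ca8 no-wash dye plus quencher for 45-90 min at room temperature. Compounds were pinned during FDSS kinetic reading; agonist 54-4 at EC80 (4 uM final) then added.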
Numbers without * were called inactive; ? = inconclusive; / = no result given.

Order of results: D2 PAM	TRPML1 ag	TRPV1 PAM	CtBP-E1A inh	Six1-Eya2 blk	TRPML1 inh
- CCN(CC)CCNC(=O)c1nn(-c2ccc(C)cc2)c(=O)c2c1c1ccccc1n2C
→ -23	-0.1	-22	-3	2	-13
- C=CCn1c(SCc2ccc3nonc3c2)nnc1-c1cccs1
→ -17	-0.3	1	-8	-13	11
- CCOC(=O)N1CCC(NC(=O)CC2C(=O)NCCN2Cc2ccccc2)CC1 (stereo not drawn)
→ 27	0.3	10	8	5	0
- O=C(c1ccco1)N1CCN(C(=O)C2CCCN(S(=O)(=O)c3cccc4nsnc34)C2)CC1 (stereo not drawn)
→ -8	1.9	-9	8	-4	-2
- CCOC(=O)c1cc(=O)n2nc(-c3ccccc3F)nc2s1
→ -6	1.5	-9	-1	0	-3
- Cc1ccsc1C1C(C#N)=C(N)Oc2n[nH]c(C)c21 (stereo not drawn)
→ -66	-0.4	-2	-2	-6	30
- Cc1ccc(C(=Cc2ccc([N+](=O)[O-])cc2)C(=O)O)cc1
→ -5	-0.5	/	3	-2	16
- COc1cc(C)c(Cl)cc1S(=O)(=O)NCCCN1CCOCC1
→ -10	-0.2	15	14	-1	3
- CN(CCC#N)c1ccc(/C=C(\C#N)c2ccccn2)cc1
→ 16	-0.5	1	-20	11	-22
- CCC(CC)N=C1NS(=O)(=O)c2cc([N+](=O)[O-])ccc21
→ ?	-0.9	5	3	-2	-4
- NC(=O)COC(=O)c1ccccc1Oc1ccccc1
→ -6	-1.8	3	6	6	13
- Cc1cc(Br)c(OCc2ccc(C(=O)N/N=C3\CC4CC=CC34)cc2)c(Br)c1 (stereo not drawn)
→ -7	-1.2	-17	6	2	10
- O=C1CN(S(=O)(=O)c2cc(Br)ccc2Br)CCN1
→ -2	-0.6	/	5	5	-13
- Cc1ccsc1C(=O)OCC(=O)N(C)c1c(N)n(Cc2ccccc2)c(=O)[nH]c1=O
→ -13	0.1	-5	19	-1	19
- Cc1ccc2nc(SCc3ccc([N+](=O)[O-])cc3)[nH]c2c1
→ -12	3.2	-14	-6	-8	-7

Next part; it opens with the 6 that closed the last part.
Order of results: D2 PAM	TRPML1 ag	TRPV1 PAM	CtBP-E1A inh	Six1-Eya2 blk	TRPML1 inh
- CCC(CC)N=C1NS(=O)(=O)c2cc([N+](=O)[O-])ccc21
→ ?	-0.9	5	3	-2	-4
- NC(=O)COC(=O)c1ccccc1Oc1ccccc1
→ -6	-1.8	3	6	6	13
- Cc1cc(Br)c(OCc2ccc(C(=O)N/N=C3\CC4CC=CC34)cc2)c(Br)c1 (stereo not drawn)
→ -7	-1.2	-17	6	2	10
- O=C1CN(S(=O)(=O)c2cc(Br)ccc2Br)CCN1
→ -2	-0.6	/	5	5	-13
- Cc1ccsc1C(=O)OCC(=O)N(C)c1c(N)n(Cc2ccccc2)c(=O)[nH]c1=O
→ -13	0.1	-5	19	-1	19
- Cc1ccc2nc(SCc3ccc([N+](=O)[O-])cc3)[nH]c2c1
→ -12	3.2	-14	-6	-8	-7
- Nc1ccc2c(=O)[nH][nH]c(=O)c2c1
→ -2	0.3	/	-2	-7	4
- CSc1ccccc1OCc1cc(C(=O)NCCCn2nc(C)cc2C)no1
→ -10	3.9	-10	-2	6	1
- CCOC(=S)SCC(=O)N1CCc2cc(OC)c(OC)cc2C1C1C(=O)CC(C)(C)CC1=O (stereo not drawn)
→ -9	-0.2	17	6	-5	-9
- Nc1c(C(=O)c2ccccc2)sc2snc(SCC(=O)c3ccccc3)c12
→ 3	21	3	-16	0	-11
- O=C1NCCCC1C(=O)Nc1ccccc1C(F)(F)F (stereo not drawn)
→ 4	-0.5	4	-1	2	-5
- Cc1cc(NC(=O)c2ccc(F)cc2)n(-c2ccccc2)n1
→ -23	-0.1	17	/	9	1
- CC(=O)Nc1cncc(-c2cccc(C(=O)N(C)C)c2)n1
→ -6	-0.1	/	-4	-2	-11
- O=C(Nc1cccc(S(=O)(=O)N2CCCCC2)c1)c1cc([N+](=O)[O-])ccc1N1CCOCC1
→ -9	-0.1	1	-18	-12	-11
- O=C(Cc1ccc(Cl)cc1)NCCN1CCCC1
→ -29	0.0	1	4	0	10
- CCN(c1ccc(C(=O)CN2C(=O)NC3(CCOc4ccccc43)C2=O)cc1)S(C)(=O)=O (stereo not drawn)
→ -4	0.3	-1	2	2	14
- COc1ccc(Br)c(Cn2c(C)c(C(=O)N(C)Cc3ccc(F)cc3)sc2=O)c1
→ -6	-0.1	/	0	0	/
- CCCC1(C(=O)O)NC(c2cccc(OC)c2O)C2C(=O)N(c3ccccc3)C(=O)C21 (stereo not drawn)
→ -8	0.7	2	9	6	-8
- O=C(NC1CCCCCC1)c1ccc(=O)n(Cc2ccccc2)n1
→ 6	4.9	0	/	2	3
- CC1CCCCN1CCNC(=O)CN1C(=O)COc2ccccc21 (stereo not drawn)
→ -4	0.1	0	11	9	0
- COc1ccc(S(=O)(=O)N2CCCCC2)cc1NC(=O)CNc1ccc(F)cc1C
→ -1	0.2	6	4	1	6

Carrying on.
Order of results: D2 PAM	TRPML1 ag	TRPV1 PAM	CtBP-E1A inh	Six1-Eya2 blk	TRPML1 inh
- C/C(=N/Nc1ccnc2cc(Cl)ccc12)c1ccc(N)cc1
→ -22	-0.6	3	-20	-22	19
- COC(=O)C(C)Sc1nc2c(c(=O)n1-c1ccccc1)SCC2 (stereo not drawn)
→ ?	-0.1	-5	0	-2	-11
- O=C(CCCn1c(=S)[nH]c2ccccc2c1=O)N1CCCCC1
→ -4	0.3	9	0	1	-24
- Nc1ncnc2c1ncn2[C@@H]1O[C@H](COP(=O)(O)OP(=O)(O)OP(=O)(O)O)[C@@H](O)[C@H]1O
→ 8	23	8	6	0	-18
- COc1ccc(-c2cc(-c3ccccc3)nc(-c3ccc4c(c3)NC(=O)CO4)c2)cc1
→ -12	0.0	-2	2	-4	-10
- COc1ccc(C(O)c2nc(-c3cccc(C(F)(F)F)c3)cs2)cc1 (stereo not drawn)
→ -1	0.3	/	11	3	/
- O=C(O)Cn1c(=O)c2c3c(sc2n(Cc2ccc(Cl)cc2Cl)c1=O)CCCC3
→ -10	0.1	18	7	-4	-2
- CCOc1ccc(CCNC(=O)c2cccnc2N2CCCC2)cc1OCC
→ -25	-0.3	9	-3	0	-14
- O=C1C(=Cc2cccc(F)c2)Cc2ccccc21
→ -5	-1.1	/	2	11	/
- CN(CC(=O)NC1CC1)S(=O)(=O)c1ccc(F)cc1
→ -4	-0.6	6	13	-4	-13
- O=C(CCn1c(=O)c2ccccc2n(Cc2cc(=O)n3ccccc3n2)c1=O)NCc1ccco1
→ -4	4.4	1	3	1	6
- COC(=O)[C@H]1C[C@H](OC(=O)Nc2cccs2)[C@@]2(O)CN(S(=O)(=O)c3ccc(C)cc3)CC2[C@H]1C(=O)OC (stereo partly drawn)
→ -2	-0.8	/	3	-4	14
- COC(=O)c1cc(Cl)c(NC(=O)c2ccc(F)cc2)cc1OC
→ -7	1.0	-27	4	9	-5
- CCn1cc(S(=O)(=O)N2CCCC2)cn1
→ -7	-0.2	-2	2	6	-13
- O=C(c1ccc(S(=O)(=O)c2ccc(Cl)cc2)cc1)N1CCOCC1
→ -9	0.0	-5	-12	-2	-9

Further records follow:
molecule | D2 PAM | TRPML1 ag | TRPV1 PAM | CtBP-E1A inh | Six1-Eya2 blk | TRPML1 inh
O=C(CC1C(=O)OCN1C(=O)OCc1ccccc1)OCC(=O)c1ccccc1 (stereo not drawn) | -10 | 2.0 | -3 | 1 | -1 | -7
Cc1ccc(S(=O)(=O)N2CCOCC2)cc1NC(=O)Cn1nnc(-c2ccccc2)n1 | -23 | -0.2 | / | -4 | 5 | 0
O=C1CCCCC1 | 0 | -0.5 | 9 | -1 | 3 | -3
c1csc(C(c2nnnn2C2CCCC2)N2CCCC3(CCCCC3)C2)c1 (stereo not drawn) | -2 | 21 | 7 | -1 | 4 | -5
Nc1c(C(=O)NCCN2CCOCC2)c2nc3ccccc3nc2n1CCc1ccccc1 | -3 | 0.3 | -7 | 8 | 7 | -1
c1cc2ccc3ccc(-n4cnnn4)c4ccc(c1)c2c34 | 9 | -0.5 | -8 | 10 | -1 | -5
Cn1c(=O)c2c(nc(CN3CCC(C(N)=O)CC3)n2Cc2c(F)cccc2Cl)n(C)c1=O | -10 | 0.9 | 6 | -5 | -4 | -15
CC(=O)c1c(C)[nH]c(C(=O)O)c1C | -3 | 0.0 | 4 | / | -1 | -16
Cc1ccc(C(C)(C)NC(=O)C2CCC(=O)N(C3CCCCCC3)C2)cc1 (stereo not drawn) | 6 | 1.0 | 3 | 9 | 4 | 24
COC(=O)c1cc2oc3ccccc3c2n1CC(=O)Nc1ccccc1OC | -13 | 0.2 | -6 | 4 | 10 | 42
CCn1cc(C(=O)NCc2ccc3c(c2)OCO3)c(=O)c2cc(F)c(N3CCN(C(=O)c4ccco4)CC3)cc21 | 6 | 0.7 | 11 | -26 | -28 | 4
N#Cc1nc(-c2cccs2)oc1NCc1ccccc1 | 6 | 1.9 | / | -10 | -12 | -2
COCCn1nnnc1C(c1cccs1)N1CCCC(C)C1 (stereo not drawn) | -11 | -0.2 | 2 | -2 | 12 | -1
CCOc1ccc(Br)cc1S(=O)(=O)NC1=NCCCCC1 | -3 | -0.6 | / | -5 | -5 | -4
O=C(Cc1ccc(Cl)cc1)Nc1ccccc1N1CCOCC1 | -26 | -0.1 | -1 | 2 | 7 | 2
CCc1c(C)sc(NC(=O)C2CCCCC2C(=O)O)c1C(N)=O (stereo not drawn) | ? | -0.4 | 5 | 5 | 1 | -21
COC(=O)[C@H]1Cc2c([nH]c3ccccc23)[C@H](c2ccccc2)N1 | -3 | 0.1 | 17 | / | -8 | -8
O=C(Nc1ccccc1)c1ccc(S(=O)(=O)N2CCC(C(=O)O)CC2)cc1 | -10 | -0.3 | 17 | 9 | -7 | -13
Nc1cccnc1Sc1cc(Cl)c(Cl)cc1Cl | -7 | 1.8 | -15 | 2 | -8 | -14
CCn1c(SCC(=O)Nc2cc3oc4ccccc4c3cc2OC)nnc1-c1cccs1 | 0 | -0.6 | 29 | 17 | 0 | 2
Cc1ccccc1CC(=O)Nc1cccc(S(=O)(=O)N2CCCC2)c1 | 1 | 0.3 | -4 | 1 | 1 | 3
COc1ccccc1-c1cnc(C(O)c2ccc(C(C)(C)C)cc2)[nH]1 (stereo not drawn) | -11 | -0.9 | / | 0 | 17 | /
Cc1nc2ccccn2c(=O)c1NC(=O)COc1ccccc1 | -11 | -0.3 | / | -10 | -6 | ?

Compounds listed so far with a CF3 group:
molecule | D2 PAM | TRPML1 ag | TRPV1 PAM | CtBP-E1A inh | Six1-Eya2 blk | TRPML1 inh
O=C1NCCCC1C(=O)Nc1ccccc1C(F)(F)F (stereo not drawn) | 4 | -0.5 | 4 | -1 | 2 | -5
COc1ccc(C(O)c2nc(-c3cccc(C(F)(F)F)c3)cs2)cc1 (stereo not drawn) | -1 | 0.3 | / | 11 | 3 | /

Bioassay records (PubChem BioAssay)
